# RGS16-Gao – modulators of RGS16 binding to Galphao, primary screen, biochemical, human proteins, multiplexed bead flow cytometry; 220,000 compounds, 0.38% hits; bead-based flow cytometry RGS16-Galphao binding, fluorescence; actives lie on both sides; AID 1441, 2008; binding response (% of control), % at 10 µM;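 active means below 25% or above 175%, edge rows of some plates excepted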;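 further: Galphao activated by GDP with aluminum fluoride before binding; 100% = wells without compound and 0% = beads without RGS; some results beyond the cut were filed as inactive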
# Target sequence (O15492 whole entry, looked up): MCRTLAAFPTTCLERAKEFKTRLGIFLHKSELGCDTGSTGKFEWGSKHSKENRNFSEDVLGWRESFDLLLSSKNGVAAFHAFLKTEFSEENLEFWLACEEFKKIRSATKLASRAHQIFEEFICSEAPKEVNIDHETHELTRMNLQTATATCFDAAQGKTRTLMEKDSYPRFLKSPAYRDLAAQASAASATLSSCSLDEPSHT
# Target sequence (P09471 whole entry, looked up): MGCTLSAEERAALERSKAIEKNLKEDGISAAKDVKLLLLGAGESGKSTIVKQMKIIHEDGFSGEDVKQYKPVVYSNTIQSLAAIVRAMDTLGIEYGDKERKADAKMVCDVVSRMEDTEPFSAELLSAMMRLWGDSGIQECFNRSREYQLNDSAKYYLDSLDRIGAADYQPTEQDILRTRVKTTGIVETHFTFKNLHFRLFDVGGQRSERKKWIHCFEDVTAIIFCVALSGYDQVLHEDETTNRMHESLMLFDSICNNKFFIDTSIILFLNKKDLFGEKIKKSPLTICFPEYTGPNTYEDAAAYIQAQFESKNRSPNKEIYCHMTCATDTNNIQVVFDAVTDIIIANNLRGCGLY
# PKD1 kinase inh – inhibitors of human PKD1 kinase, biochemical, fluorescence polarization | PKD1 kinase fluorescence polarization assay | 200,000 compounds, 0.056% hits | inhibition, %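 (about 10 µM by stock and volumes)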 | Serine/threonine-protein kinase D1 (Homo sapiens), Q15139 | AID 797, 2007;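 active means inhibition of 50% or more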;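 further: controls were vehicle for no effect and a reference inhibitor for full effect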
# Insulin prom inh – inhibitors of insulin promoter-driven GFP, primary screen, imaging, TRM-6 cells (human fetal islet line), eGFP reporter, cell count | reporter expression induced with tamoxifen | inhibition, % at 2 µM | 130,000 compounds, 0.9% hits;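 active means inhibition above the mean plus 3 SD, with well images judged a real hit on visual review, cut at about 60% in these data, passing the limit was not always enough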
# HSV replic up – enhancers of HSV replication in host cells, fold increase, host cell viability; HSV replication augmentation in cells; maximum fold increase; 220,000 compounds, 0.005% hits;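 active means peak rise of 1.5-fold or more in the series; tested in PC3 cells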;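 further: first round at 10 µM; read as green reporter fluorescence; hits show the peak of a series up to 25 µM; 1 = signal of infected wells without compound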
# GALR2 agonist – GALR2 receptor agonists, primary screen, cell-based; activation, %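 (tested at 5 µM)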; GALR2-expressing cells, agonist activation read-out; 140,000 compounds, 0.48% hits; Galanin receptor type 2 (Homo sapiens), O43603;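 active means above mean plus 3 SD of all compounds, about 5% in these data, not always enough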;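 further: 0% = vehicle buffer wells and 100% = reference agonist at full effect; tested in CHO reporter cells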
# Target sequence (O43603 whole entry, looked up): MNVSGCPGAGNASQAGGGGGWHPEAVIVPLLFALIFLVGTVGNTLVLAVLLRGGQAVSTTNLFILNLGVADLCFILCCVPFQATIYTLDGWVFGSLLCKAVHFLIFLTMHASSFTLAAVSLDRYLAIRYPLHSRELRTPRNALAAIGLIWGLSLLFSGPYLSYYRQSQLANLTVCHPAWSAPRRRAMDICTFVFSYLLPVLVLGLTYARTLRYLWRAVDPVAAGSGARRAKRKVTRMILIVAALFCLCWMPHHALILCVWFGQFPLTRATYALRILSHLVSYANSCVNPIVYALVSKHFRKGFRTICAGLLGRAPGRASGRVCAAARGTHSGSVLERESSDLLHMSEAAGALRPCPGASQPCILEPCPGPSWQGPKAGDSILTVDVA
# Insulin prom inh cell count – also measured in Insulin prom inh; calls as there; normalized cell count, %; measured here: cell count, toxicity; reference of the scale not given here;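 cells exposed to compound for 48 h; stained nuclei by imaging scaled within each plate; lower means fewer cells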
# HSV replic up primary fold – further read-out of HSV replic up, marked with its call; fold increase; compound at 10 µM; measured here: primary screen fold increase 10 uM; tested in PC3 cells;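 GFP signal in the first replicate; 1 = infected wells without compound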
# * marks the source's active call; other numbers are inactive results; i = inactive; nt = no result given. Rows were taken by chance; about 1.3% have a hit in one of these screens.
SMILES,RGS16-Gao,PKD1 kinase inh,Insulin prom inh,Insulin prom inh cell count,HSV replic up,HSV replic up primary fold,GALR2 agonist
c1ccc(-n2nnnc2NCCCN2CCOCC2)cc1,103,-7,-13,105,i,0.97,-2.3
CC(C)(C)C(=O)Nc1ccc(C(=O)NNC(=O)Cc2ccccc2)cc1,100,5,13,132,i,0.88,-2.2
COc1ccc(C(=O)NCc2ccc(C(=O)NCC(OC)OC)cc2)cc1OC,93,-4,27,123,i,0.81,nt
CN1CCN(C(=O)NCC23CC4CC(CC(C4)C2)C3)CC1,108,-8,nt,nt,i,1,nt
CCOc1ccc(CCNC(=O)C2CCCN(c3nn4c(=O)cc(C)nc4s3)C2)cc1 (centres undefined),105,0,-10,67,i,0.95,-1.0
COc1cc(SC)ccc1C(=O)NCCOc1ccc(Cl)cc1,99,-6,nt,nt,i,1,-0.9
Cn1c(-c2ccccc2O)cc2ccccc21,87,-4,-190,99,i,0.87,-1.6
COc1cc(NC(=O)CSc2nc3c(c(=O)[nH]2)CCCC3)cc(OC)c1OC,104,-2,35,109,i,0.86,nt
COC(=O)Nc1nnc(-c2ccco2)s1,104,nt,nt,nt,i,0.82,nt
O=C(CCc1ccccc1)NNC(=O)Cc1ccccc1,108,-3,nt,nt,i,0.89,nt
O=C(O)c1ccc(COc2ccccc2/C=C2\NC(=O)N(Cc3ccccc3)C2=O)cc1,109,-3,20,46,i,0.99,nt
CCS(=O)(=O)NCCCCc1ccccc1,111,1,28,88,i,0.92,-1.7
Cc1ccc2[nH]c(=O)c(CN(Cc3ccc4c(c3)OCO4)Cc3nnnn3C3CCCC3)cc2c1,99,13,nt,nt,nt,nt,-0.6
Cc1cc(C(=O)Nc2cccnc2)no1,103,-1,-13,53,i,0.77,-2.9
CC(C)C(=O)N(c1ccc(F)cc1)C1C=CS(=O)(=O)C1 (centres undefined),149,-7,nt,nt,nt,nt,-0.8
COc1ccc(/C(C)=N/NC(=O)c2ccccc2N)cc1,98,-1,nt,nt,i,1,nt
CNc1nc(SC)nc(N2CCOCC2)n1,106,-9,-81,23,i,0.95,0.4
CCOC(=O)c1c(NC(=O)CCCN2CCOCC2)sc2c1CC(C)(C)OC2,92,-10,-11,85,i,0.9,0.1
O=C(Nc1ccc(O)c2c(=O)cc(-c3ccccc3Cl)oc12)c1cccs1,108,nt,nt,nt,i,0.96,nt
CCOC(=O)c1sc(NC(=O)c2ccc(Br)o2)cc1C,97,-1,nt,nt,i,1.1,-2.8

# Laid out differently: entries from further up
mol	RGS16-Gao	PKD1 kinase inh	Insulin prom inh	Insulin prom inh cell count	HSV replic up	HSV replic up primary fold	GALR2 agonist
CCOC(=O)c1sc(NC(=O)c2ccc(Br)o2)cc1C	97	-1	nt	nt	i	1.1	-2.8
CC(C)(C)C(=O)Nc1ccc(C(=O)NNC(=O)Cc2ccccc2)cc1	100	5	13	132	i	0.88	-2.2
COC(=O)Nc1nnc(-c2ccco2)s1	104	nt	nt	nt	i	0.82	nt
COc1cc(NC(=O)CSc2nc3c(c(=O)[nH]2)CCCC3)cc(OC)c1OC	104	-2	35	109	i	0.86	nt
O=C(CCc1ccccc1)NNC(=O)Cc1ccccc1	108	-3	nt	nt	i	0.89	nt
CCOC(=O)c1c(NC(=O)CCCN2CCOCC2)sc2c1CC(C)(C)OC2	92	-10	-11	85	i	0.9	0.1
O=C(O)c1ccc(COc2ccccc2/C=C2\NC(=O)N(Cc3ccccc3)C2=O)cc1	109	-3	20	46	i	0.99	nt

# (list continues)
SMILES,RGS16-Gao,PKD1 kinase inh,Insulin prom inh,Insulin prom inh cell count,HSV replic up,HSV replic up primary fold,GALR2 agonist
COc1ccc2[nH]c(=O)c(CN(C(=O)c3ccccn3)C3CCCCC3)cc2c1,96,-10,nt,nt,i,0.88,0.4
CN(Cc1ccccc1)c1ncnc(N)c1[N+](=O)[O-],98,-9,nt,nt,i,0.93,nt
O=C1CC(O)(c2ccccc2)C(c2ccccc2)=C1c1ccccc1 (centres undefined),98,7,31,101,i,0.84,-3.7
COc1ccc(NS(=O)(=O)CC23CCC(CC2=O)C3(C)C)cc1 (centres undefined),97,0,-5,104,i,1.2,-1.7
CC(C)CNC(=O)COC(=O)Cc1ccc(Cl)cc1,102,-5,nt,nt,i,1,nt
CCN(CCn1cccn1)Cc1c(C(=O)N2C[C@@H](C)O[C@@H](C)C2)nc2ccc(Cl)cn12,103,2,nt,nt,i,1.1,nt
CC1(C)C/C(=N\O)c2cc3c(nc2C1)CCCC3,97,28,nt,nt,i,0.74,0.1
COc1ccc(NC2CC(=O)N(CCc3ccccc3)C2=O)cc1 (centres undefined),95,-8,-128,125,i,0.91,-3.8
O=C(Cc1ccccc1)n1nc(-c2ccco2)nc1SCc1ccccc1,110,-7,28,82,i,1.1,-2.0
Cc1cc(C)c(NC(=O)CCCN2CCOCC2)c(C)c1,97,1,-202,83,i,0.96,-1.9
COc1ccc(C2C(C#N)=C(C)NC(C)=C2C#N)c(OC)c1,101,0,nt,nt,i,1.2,nt
O=C(COc1ccc(/C=N/NS(=O)(=O)c2ccccc2)cc1)Nc1ccccc1,104,-5,-285,113,nt,nt,-3.8
COc1ccc(CCNC(=O)CN(c2cccc([N+](=O)[O-])c2)S(C)(=O)=O)cc1OC,107,-9,-45,23,i,0.96,nt
N/C(=N\OC(=O)c1cc([N+](=O)[O-])ccc1Cl)c1ccccn1,96,nt,nt,nt,i,0.96,nt
COc1cc(C(=O)Nc2nc3ccc(S(C)(=O)=O)cc3s2)cc(OC)c1C,99,nt,nt,nt,i,0.84,nt
CCOC(=O)c1[nH]c2ccccc2c1NC(=O)CC,103,-4,nt,nt,nt,nt,-0.9
Cc1ccccc1C(=O)Oc1ccccc1C(=O)N1CCOCC1,86,4,40,101,i,0.73,-1.8
CCOC(=O)N1CCN(Cc2nc(Cc3cccc(F)c3)no2)CC1,99,12,nt,nt,i,1,nt
Cc1ccc(C)c(NS(=O)(=O)c2ccc(OCC(=O)NCC3CCCO3)cc2)c1 (centres undefined),105,-3,33,76,i,0.97,nt
CC(Oc1ccc(Cl)cc1Cl)C(=O)Nc1ncccn1 (centres undefined),98,-8,nt,nt,i,0.97,-1.6
COc1ccc(-c2cc(C(=O)N3CCc4ccccc4C3)no2)cc1,98,0,nt,nt,i,0.87,nt
Cc1ccccc1SCc1noc(C(=O)NC(C)C)c1C(=O)O,103,-10,-51,42,i,1.1,-1.8
CCc1noc(N)c1C(=O)Nc1ccc(F)c(Cl)c1,100,4,-12,60,i,0.95,2.1
O=c1c2c3c(sc2nc(N2CCNCC2)n1-c1cccc(Cl)c1)CCCCC3,101,nt,nt,nt,i,0.69,nt
Cc1cc(N2CCOCC2)ncc1[N+](=O)[O-],117,-6,nt,nt,i,0.88,-1.8
CCc1ccc2[nH]c(=O)c(C3C(C#N)=C(N)Oc4c3ccc3cccnc43)cc2c1 (centres undefined),98,-2,5,123,i,0.68,-1.5
Cc1ccc(O)c(C2=Nc3ccccc3C2(C)C)c1,87,0,nt,nt,i,1.1,nt
CCOC(=O)N1CCN(c2c(NCC3CCN(Cc4cccc(C)c4)CC3)c(=O)c2=O)CC1,100,-7,14,137,i,0.95,-1.2
Cc1ccc(C(=O)N[C@H](C(=O)Nc2cc(Cl)cc(Cl)c2)C(C)C)cc1,98,-12,nt,nt,i,1.1,-0.2
CCS(=O)(=O)c1ccc(C(=O)Nc2cccc(Cl)c2)c(Cl)c1Cl,103,-11,-15,135,i,0.92,-0.7
CCOc1ccc(C(O)Cn2c(=N)n(CCN3CCCCC3)c3ccccc32)cc1 (centres undefined),103,2,nt,nt,i,0.68,26*
Fc1ccc(Nc2nc(-c3cccnc3)cs2)cc1,104,-2,17,104,i,0.97,nt
CC(C)CC1c2[nH]c3ccccc3c2CCN1CCCn1cccn1 (centres undefined),104,7,nt,nt,i,0.98,nt
Cc1cc(NC(=O)CSCc2ccccc2)no1,86,-7,nt,nt,i,0.91,nt
COCCN(CC(=O)NC1CCCCC1)C(=O)CSc1nc2ccccc2o1,122,-7,19,125,i,1,-1.4
Cc1ccsc1/C=N/NC(=O)Cc1cc(=O)[nH][nH]1,100,nt,nt,nt,i,0.97,nt
CCS(=O)CC(=O)Nc1c(-c2ccccc2)oc2ccccc2c1=O (centres undefined),102,nt,nt,nt,i,0.92,nt
CCOC(=O)C(NC(=O)CC)(Nc1sc2c(c1C(=O)OC)CCN(C)C2)C(F)(F)F (centres undefined),107,4,-29,18,i,0.85,-2.9
COc1ccc(/C=N/NC(=O)c2ccccc2O)cc1Cn1cc(Cl)cn1,56,-2,0,140,i,0.78,-2.0
CCN1CCN(C(c2cccs2)C(C)NS(=O)(=O)c2ccccc2)CC1 (centres undefined),114,-1,-9,51,i,0.96,nt
O=C(CCC1CCCC1)N[C@@H](Cc1ccc(O)cc1)C(=O)O,98,3,nt,nt,i,0.94,nt
Cc1csc(NC(=O)C2CCC(C)(C(=O)O)C2(C)C)n1 (centres undefined),98,11,nt,nt,i,0.84,-0.2
COc1ccc(C(=O)N[C@H](C(=O)NCc2cccs2)C(C)C)cc1,102,4,nt,nt,i,1,nt
Cc1nn(C)cc1CNC(=O)COc1ccc(Cl)cc1Cl,117,-6,nt,nt,i,0.82,-3.0
CCC(=O)c1ccc(OCC(=O)N2CCc3cc(OC)c(OC)cc3C2)cc1,-36*,-3,-3,115,i,0.87,-0.7
O=C(N/N=C/c1ccc(OC2CSC2)cc1)c1ccccc1,98,1,nt,nt,i,0.74,-1.5
COc1ccc(-c2ccnc(SCC(=O)c3ccc(Cl)cc3)n2)cc1,101,-9,nt,nt,i,1,-1.0
c1ccc(Cn2c(-c3ccccc3)nc3nc4ccccc4nc32)cc1,108,-1,6,143,i,0.93,0.5
Cc1csc(/C(=N/OC(=O)c2ccco2)C(N)=O)n1,101,nt,nt,nt,i,0.91,nt
Clc1nc(Oc2ccccc2)nc(-c2cn(-c3ccccc3)c3ccccc23)n1,102,nt,nt,nt,i,1.1,nt
CCc1ccccc1NC(=S)NC1CC2CCC(C1)N2Cc1ccco1 (centres undefined),110,-9,10,77,i,0.9,-1.7
COc1ccc(N2CC(O)(c3ccc(OC(F)F)cc3)[N+]3=C2CCCC3)cc1 (centres undefined),101,-1,11,140,i,1.1,nt
Cc1cc(N2C(=O)C(O)=C(C(=O)c3cccs3)C2c2cccc(Br)c2)no1 (centres undefined),100,nt,nt,nt,i,1.1,nt
O=C(Nc1ccc2nn(-c3ccccc3)nc2c1)c1cccnc1,102,-8,43,70,i,0.94,-2.1
CCN(CC)CCCNC(=O)c1sc2nc(-c3ccc(F)cc3)cn2c1C,185,-8,nt,nt,i,0.77,-1.6
CC(=NCc1ccc2c(c1)OCO2)C1=C(O)c2ccccc2C1=O,66,-2,-29,111,i,1,-4.0
CC(C)CC(c1nnnn1C1CCCC1)N1CCN(c2ccccc2F)CC1 (centres undefined),95,-4,8,201,i,0.99,-0.5
CCOC(=O)c1sc(NS(=O)(=O)c2cc(C)ccc2C)nc1C,95,3,-143,98,i,0.93,-2.5
CC(/C=C/c1ccccc1F)=N\NC(=O)c1ccccc1,97,-5,14,111,i,1,nt
Cc1ccc(S(=O)(=O)N2CCOCC2)cc1C(=O)N1c2ccccc2Sc2ccccc21,99,4,-67,98,i,0.97,-1.9

# Following part:
SMILES,RGS16-Gao,PKD1 kinase inh,Insulin prom inh,Insulin prom inh cell count,HSV replic up,HSV replic up primary fold,GALR2 agonist
COC(=O)c1nn(-c2ccc(OC)cc2)c(=O)c2c(N)sc(C)c12,90,-4,nt,nt,i,0.96,1.1
CC(C)(C)C1CCc2c(C(=O)NNC(=O)CCCC(=O)O)csc2C1 (centres undefined),113,-5,21,105,i,0.95,-0.8
NC(=O)CC[C@@H]1NC(=O)[C@H](CO)NC(=O)c2cc([N+](=O)[O-])cc(I)c2NCCCC[C@@H](C(N)=O)NC(=O)[C@H](Cc2ccc(O)cc2)NC1=O,97,-8,-36,79,i,0.74,-0.1
O=C(CCc1nc(-c2ccccc2F)no1)NCCN1CCc2ccccc2C1,101,-7,35,91,i,0.83,-1.3
O=C1c2ccccc2C(=O)N1CC(O)CNc1ccc(Br)cc1 (centres undefined),100,4,72*,68*,i,0.9,0.8
CC1(NC(=S)Nc2ccc3ccccc3c2)CCS(=O)(=O)C1 (centres undefined),99,nt,nt,nt,i,0.95,nt
C=CCOc1ccc(/C=N\NC(N)=S)cc1,100,-1,nt,nt,i,1.1,nt
O=c1c2ccccc2ncn1CCCOc1ccccc1[N+](=O)[O-],104,1,0,132,i,0.73,-2.0

# High-throughput results deposited in PubChem by several laboratories.
